miR-21 FLuc: qHTS Assay for Modulators of miRNAs and/orActivators of miR-21; HeLa miR-21 FLuc reporter, luciferase, 48 h; 340,000 tested, under 10 active; Potency, µM (titrated, usually from 38.3 µM), for inactives: at the top dose reporter change, positive = more light; active = well fitted rising curve with a large enough effect; inconclusive = small, poorly fitted or top-dose-only effect; inactive = no such curve, though single readings can be large or run the other way;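 note: % of control where 0% means no effect; miR-21 action dims this reporter so a rising signal means less miR-21 action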
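HeLa cells endogenously expressing miR-21, stably carrying CMV-driven firefly luciferase with a downstream miR-21 binding site, 2000 cells/well. Titrations up to approximately 40 uM, 48 hours; luciferase luminescence read.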
An asterisk follows results filed as active; ? = inconclusive; [ ] = remark or other dose.

| miR-21 FLuc | molecule |
| --- | --- |
| -1% | CN(Cc1ccccc1)c1nc2c(S(=O)(=O)c3cccc(Cl)c3)nnn2c2ccsc12 |
| 0% | COc1ccc(C2c3c(oc4ccc(F)cc4c3=O)C(=O)N2Cc2ccc3c(c2)OCO3)cc1 (stereo unspecified) |
| 0% | Cc1nnc(C)n1-c1ccc(C(=O)Nc2cccc(Br)c2)cc1 |
| -3% | Cc1cccc(C)c1NC(=O)CCSCCc1ccccn1 |
| -3% | Cc1ccc2c(=O)cc(C(=O)Nc3ccc(S(=O)(=O)N4CCCC(C)C4)cc3)oc2c1C (stereo unspecified) |
| -4%[7.66 µM] | Cc1cc2c(c(=O)o1)C1O[C@](c3ccsc3)(Cc3cc(C#N)ccc31)O2 |
| -1% | COc1ccc(/C=C(/C#N)c2nc(-c3ccc(-c4ccccc4)cc3)cs2)cc1OC |
| 2% | CCCOC(=O)c1cccc(NC(=O)c2c(-c3ccccc3Cl)noc2C)c1 |
| 0% | CC1CCc2c(sc(NC(=O)CCCOc3ccc(C(C)(C)C)cc3)c2C(N)=O)C1 (stereo unspecified) |
| -6% | CCCN(C(=O)c1cc2c(=O)oc3ccccc3c2s1)c1ccc(CC)cc1 |
| -2% | CCn1c(C(=O)NCc2ccccc2)cc2sc(Cl)cc21 |
| 8% | Cc1cc(C)n(-c2nc(C)c(C)c(=O)n2CC(=O)Nc2cccc([N+](=O)[O-])c2)n1 |
| 10% | CCOc1ccccc1CNC(=O)c1cc2c(=O)n(Cc3ccco3)ccc2nc1C |
| 22% | CCN(C(=O)CSc1nc2n[nH]c(C)c2c(=N)n1-c1cccc(OC)c1)c1cccc(C)c1 |
| -3% | O=S(=O)(c1ccc(C2CCCCC2)cc1)N1CCN(c2ccc(Cl)c(Cl)c2)CC1 |
| 27% | CCOc1ccccc1NC(=O)C1CCCN1S(=O)(=O)c1ccc2nc(-c3ccccc3)[nH]c2c1 (stereo unspecified) |

Three structures out of the list, ordered by SMILES length, falling:
| miR-21 FLuc | molecule |
| --- | --- |
| 22% | CCN(C(=O)CSc1nc2n[nH]c(C)c2c(=N)n1-c1cccc(OC)c1)c1cccc(C)c1 |
| -3% | O=S(=O)(c1ccc(C2CCCCC2)cc1)N1CCN(c2ccc(Cl)c(Cl)c2)CC1 |
| 0% | CC1CCc2c(sc(NC(=O)CCCOc3ccc(C(C)(C)C)cc3)c2C(N)=O)C1 (stereo unspecified) |

Next structures:
| miR-21 FLuc | molecule |
| --- | --- |
| 0% | COC(=O)c1scc(-c2ccc(C)cc2)c1S(=O)(=O)Nc1ccc(N(C)C)cc1 |
| -1% | COC(=O)c1sccc1S(=O)(=O)N1CCN(c2cccc(C)c2)C(C)C1 (stereo unspecified) |
| -48% | O=C(NCc1cccc(F)c1)c1ccc(NC(=O)c2nsc3ccccc23)cc1 |
| -4% | COc1ccc(NC(=O)CSc2nc3cc(OC)c(OC)cc3c3nc(-c4ccccc4)nn23)cc1Cl |
| 6% | COc1ccc(CCNC(=O)Cn2c(=O)n(-c3ccc(C)c(C)c3)c(=O)c3c(C)c(C)sc32)cc1OC |
| 0% | O=C(CN1C(=O)COc2ccc(S(=O)(=O)N3CCCC3)cc21)N1CCN(c2ccc(F)cc2)CC1 |
| 1% | Cc1ccc(Oc2nc3ccccn3c(=O)c2/C=C(\C#N)c2nc3ccccc3s2)c(C)c1 |
| -13% | Cc1cc(C)c(NC(=O)C2CCN(C(=O)N3CCOc4ccccc43)CC2)c(C)c1 |
| -8% | CCOc1ccc(-c2cc(C(=O)NCc3ccccc3Cl)c3ccccc3n2)cc1 |
| -1% | COc1ccc(C2C(C(=O)Nc3ccc(Cl)cc3)=C(C)Nc3nc(SCc4cccc(C)c4)nn32)cc1OC (stereo unspecified) |
| -2% | CCC1CCCCN1C(=O)c1c[nH]c2ccc(S(=O)(=O)Nc3cccc(OC)c3)cc2c1=O (stereo unspecified) |
| 0% | CC1=C(C(=O)Nc2ccccc2)C(c2cccc(Cl)c2)n2nc(SCC(=O)c3ccc(C)cc3)nc2N1 (stereo unspecified) |
| 3% | Cc1cccc(Cn2cc(S(=O)(=O)c3cccc(C)c3)c(=O)c3cc(F)c(N4CCOCC4)cc32)c1 |
| 17% | O=C(c1ccc2c(c1)CCN2S(=O)(=O)c1ccc(Cl)cc1)N1CCN(c2ccc(F)cc2)CC1 |
| -5% | COc1cccc(CCNC(=O)c2c(O)nc3c(C)cccn3c2=O)c1 |
| 10% | Cc1nn(-c2ccccc2)c(OC(=O)c2ccccc2F)c1S(=O)(=O)c1ccccc1 |
| -6% | Cc1ccc(Cl)cc1NC(=O)C(=O)NCCc1sc(-c2ccc(F)cc2)nc1C |
| -20% | COc1ccc(OCC(=O)OCc2cc(=O)n3nc(-c4cccs4)sc3n2)cc1 |
| 7% | CCOc1ccccc1C(=O)N1CCCCC1CCN1CCOCC1 (stereo unspecified) |
| -4% | CC1=C(C(=O)Nc2ccc(C)cc2C)C(c2cccs2)n2nc(SCc3ccccc3Cl)nc2N1 (stereo unspecified) |
| 0% | Cc1cccc2c1-c1sc(C(=O)NCCCN3CCN(c4ccccc4F)CC3)cc1CO2 |
| -2% | CCc1ccc2ncc3c(-c4ccccc4)nn(-c4ccccc4)c3c2c1 |
| ? | CCOc1ccc(CCNC(=O)c2sc3ncccc3c2-n2c(C)ccc2C)cc1 |
| -4% | COc1nc(-c2ccccc2)ccc1-c1noc(-c2ccccc2Br)n1 |
| 3% | CCOc1ccc(CNS(=O)(=O)c2ccc3c(c2)CCCN3C(C)=O)cc1OC |
| -11% | NS(=O)(=O)c1ccc(-c2ccc(/C=C3\C(=O)Nc4ccccc43)o2)cc1 |
| -12% | CCN(CC)c1ccc(NC(=O)c2cc3c(=O)n4cccc(C)c4nc3n2C)c(C)c1 |
| -5% | Cc1ccc(-c2cc(C(=O)NC(C)c3ccccc3)c3ccccc3n2)cc1C (stereo unspecified) |
| -32% | CSc1ccc(-c2nc3ccc(C)cn3c2Nc2ccccc2C)cc1 |
| 24% | CCc1ccccc1NC(=O)c1ccc(Cn2nc(N3CCN(c4ccccc4)CC3)ccc2=O)o1 |
| 2% | COc1cc(OC)c(NC(=O)N2CCC(CN3CCCC3)CC2)cc1Cl |
| -4% | O=C(C1CCC(Cn2c(=O)c3sccc3n(Cc3ccc(F)cc3)c2=O)CC1)N1CCOCC1 (stereo unspecified) |
| 20% | O=C(CC1N=C2c3ccccc3N=C(SCc3cccc(Cl)c3)N2C1=O)NCCc1ccccc1 (stereo unspecified) |
| 3% | Cn1c(=O)c(=O)n(C)c2cc(NC(=O)c3cccc(F)c3)c(Cl)cc21 |
| -12% | CCOC(=O)c1cccc(NC(=O)c2cc3cc4ccc(C)cc4nc3s2)c1 |
| 29% | Cc1ccc(C)c(CN2C(=O)c3ccccc3S(=O)c3ccc(C(=O)N4CCC(C)CC4)cc32)c1 (stereo unspecified) |
| -14% | CN(CC(=O)Nc1cccc(C(F)(F)F)c1)S(=O)(=O)c1cccs1 |
| 1% | CCOC(=O)Cn1c(=O)n(C2CCCCC2)c2nc(-c3ccc(OCC)cc3)nc(C(N)=O)c21 |
| 1% | CCCSCCCNC(=O)C1CCN(c2nc3ccccc3nc2C(F)(F)F)CC1 |
| -5% | COc1ccc(Br)c2c1-c1nc(NC(=O)c3ccc(F)cc3)sc1C2 |

Brought forward from above: 4 compounds; new compounds follow.
| miR-21 FLuc | molecule |
| --- | --- |
| -14% | CN(CC(=O)Nc1cccc(C(F)(F)F)c1)S(=O)(=O)c1cccs1 |
| 1% | CCOC(=O)Cn1c(=O)n(C2CCCCC2)c2nc(-c3ccc(OCC)cc3)nc(C(N)=O)c21 |
| 1% | CCCSCCCNC(=O)C1CCN(c2nc3ccccc3nc2C(F)(F)F)CC1 |
| -5% | COc1ccc(Br)c2c1-c1nc(NC(=O)c3ccc(F)cc3)sc1C2 |
| -8% | CCc1cnc2c(c1SCc1c(F)cccc1Cl)c(=O)n(C)c(=O)n2C |
| -2% | CCOc1ccc(CCNC(=O)c2ccc3c(c2)nc2n3CCOC2)cc1OCC |
| 8% | COc1ccc(C)cc1NC(=O)c1cc(S(=O)(=O)NC2CCCCCC2)ccc1F |
| -12% | CCNC(=O)C1CCCN(c2nn3cc(-c4ccc(C)cc4)nc3s2)C1 (stereo unspecified) |
| 2% | CNC(=O)c1cc2n(n1)CCCN(Cc1ccc(F)cc1)C2=O |
| 16% | Cc1ccc(-n2ncc(C(=O)NCCN3CCCC3)c2C2CCN(C(=O)OC(C)(C)C)CC2)cc1C |
| 17% | Cc1cc(C)c(NC(=O)CCn2c(=O)c3cccn3c3ccccc32)c(C)c1 |
| -3% | O=C(Cc1ccc(F)cc1)Nc1nnc2n1CCS2 |
| -1% | COc1ccc(OCC(=O)Nc2nnc3n2CCS3)cc1 |
| 2% | CC1=C(c2ccc(C(C)C)cc2)S(=O)(=O)N=C1N1CCC(C(=O)NCc2ccco2)CC1 |
| 1% | Cc1ccc(CCNC(=O)C2CCCN(c3nnc(C)c4c(C)n(-c5ccccc5)nc34)C2)cc1 (stereo unspecified) |
| 0% | COc1ccc(Cn2ccc3nc(C)c(C(=O)Nc4ccc(OC)c(OC)c4)cc3c2=O)cc1 |
| 0% | O=c1c2cc3c(cc2n(Cc2ccc(F)cc2)c(=O)n1Cc1nc(-c2ccccc2)no1)OCO3 |
| -10% | COc1ccc(NC(=O)c2c(NCc3cccc(OC)c3)sc3c2CCCC3)cc1 |
| 11% | CCC(Nc1ccc(-c2nc(-c3ccccn3)no2)cc1[N+](=O)[O-])c1ccccc1 (stereo unspecified) |
| 4% | COc1cc(NC(=O)CCS(=O)(=O)c2ccc3c(c2)CC(=O)N3C)cc(OC)c1OC |
| -10% | COc1cc(OC)c(C(=O)NCc2nc(-c3ccccc3)no2)cc1OC |
| 3% | Cc1cccc(NC(=O)c2cc(S(=O)(=O)NCc3ccc4c(c3)OCO4)ccc2F)c1C |
| 4% | COc1ccc(CNCCCSc2nnnn2-c2ccccc2)cc1 |
| -16% | CC(=O)Nc1nonc1-c1nnc(SCC(=O)Nc2cc(C)cc(C)c2)n1-c1ccccc1 |
| 1% | NC1=NC(c2cc(F)cc(F)c2)n2c(nc3ccccc32)N1 (stereo unspecified) |
| -2% | CC(=O)c1cccc(NC(=O)CSc2nc(=O)n(Cc3cccnc3)c3c2CCC3)c1 |
| -38% | COc1ccc2c(Sc3ccccc3)c(C(=O)NCC(C)c3ccccc3)[nH]c2c1 (stereo unspecified) |
| -5% | COc1ccc(Oc2nc3c(c(=O)n(C)c(=O)n3C)n2Cc2ccc(Cl)cc2Cl)cc1 |
| -4% | CCOC(=O)c1ccc2[nH]c(CSc3nnc(-c4cccc(F)c4)n3C)cc(=O)c2c1 |
| 8% | CCOC(=O)C1CCCN(S(=O)(=O)c2csc(C(N)=O)c2)C1 (stereo unspecified) |
| -7% | COc1ccc(Cn2c(SCC(N)=O)nc3c(sc4ccccc43)c2=O)cc1 |
| -6% | CCc1c(C)sc2c1CCN(C(=O)Nc1cc(C)ccc1OC)C2c1ccc(F)cc1 (stereo unspecified) |
| 0% | Cc1cc(S(=O)(=O)Nc2cc3c(cc2C)n(C)c(=O)c(=O)n3C)ccc1F |
| ? | COc1cccc(CC(=O)Nc2ccc3nc(Nc4cccc(C(F)(F)F)c4)cc(C)c3c2)c1 |
| -18% | COc1cccc(CNC(=O)c2ccc3c(c2)nc2n3CCOC2)c1OC |
| 4% | CC(C)c1ccc2oc(-c3cccc(NC(=O)c4ccc5c(c4)OCCO5)c3)nc2c1 |
| -4% | COc1cccc(CNC(=O)Cc2c(C(=O)O)c(C)cn2C)c1 |
| -2% | COc1ccc(-c2nn(C)c3sc(C(=O)N4CCN(c5cccc(C)c5C)CC4)cc23)cc1OC |
| -2% | Cc1ccc(C2c3c(oc4ccccc4c3=O)C(=O)N2c2ccc(C)cn2)cc1 (stereo unspecified) |
| 25% | O=C(Nc1ccc(F)c(Cl)c1)C1CCN(S(=O)(=O)c2ccc3c(c2)CCCN3C(=O)C2CCC2)CC1 |
| 5% | CCN1CCN(C(=O)c2ccc3c(c2)N(Cc2cc(C)ccc2C)C(=O)c2ccccc2S3(=O)=O)CC1 |
| -4% | CCOc1ccc(NC(=O)c2oc3ccccc3c2NC(=O)c2c(F)cccc2F)cc1 |
| 0% | CCOc1cc(C2C(C(=O)Nc3ccccc3)=C(C)Nc3ncnn32)cc(Br)c1O (stereo unspecified) |
| 5% | COc1ccccc1C(=O)NCc1ccc2c(c1)CCN2C(=O)c1cccc(C)c1 |
| 1% | CSc1cccc(NC(=O)C2CCN(c3nc4ccccc4[nH]3)CC2)c1 |
| -5% | CCc1ccccc1NC(=O)CCCN1C(=O)CCn2nc(-c3cn(C)c4ccccc34)cc21 |
| -28% | Cc1cc(O)c(CN2CCN(c3ccccc3)CC2)c2oc(=O)cc(C)c12 |
| 1% | CCn1c(NCc2cccc(Cl)c2)nc2ccccc21 |
| 13% | COc1ccc(C(=O)NCCn2cc(SCC(=O)NCCc3ccc(OC)c(OC)c3)c3ccccc32)cc1 |
| -9% | COc1ccc(NC(=O)Nc2nnc(SCC(=O)Nc3cccc(C)c3C)s2)cc1 |
| -13% | COc1ccc2c(c1)-c1nc(NC(=O)c3ccc(C)cc3)sc1CC2 |
| 1% | CCN1CCN(C(=O)N[C@@H](C(=O)N[C@@H]2C(=O)N3[C@@H]2SC(C)(C)[C@@H]3C(=O)O)c2ccccc2)C(=O)C1=O |

Reformatted as a markdown table: part of the list above.
| canonical_smiles | miR-21 FLuc |
| --- | --- |
| NS(=O)(=O)c1ccc(-c2ccc(/C=C3\C(=O)Nc4ccccc43)o2)cc1 | -11% |
| CCN(CC)c1ccc(NC(=O)c2cc3c(=O)n4cccc(C)c4nc3n2C)c(C)c1 | -12% |

Next records follow.
| miR-21 FLuc | molecule |
| --- | --- |
| 2% | COc1ccc(CNC(=O)CSc2ncc3c(n2)-c2cc(Cl)ccc2N(C)S3(=O)=O)cc1 |
| ? | C=Cc1ccc(Cn2c(C(=O)O)c(CNCc3ccc(F)cc3)c3ccc(C)cc32)cc1 |
| 26% | CCOC(=O)N1CCN(Cc2nc3cc(NC(C)=O)ccc3n2C(C)C)CC1 |
| -50% | Cc1[nH]c2ccc(C(=O)NCCc3ccccc3Cl)cc2c1C |

Compound activity as filed in PubChem.

Not all compounds are listed; count on the stated rates, not on these rows.
